RanGTP-Imp inh = inhibitors of RanGTP-importin-beta interaction, primary screen, biochemical, FRET, CFP-Ran, YFP-importin-beta, homogeneous; cell-free CFP-Ran/YFP-importin-beta FRET ratio; inhibition, % (concentration not given with the values); 1.1% of 300,000 active; AID 2216;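 active = most replicates above 15%; inconclusive = exactly half above 15%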;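 also: 0% = DMSO wells and 100% = Ran loaded with GDP instead of GTP; wells of about 40 µL received 100 nL stock; the first replicate is given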
rRNA inh HTS = inhibitors of bacterial rRNA selective over humanized ribosomes | E. coli WT GFP vs humanized-ribosome RFP mutants, fluorescence, 24 h; hits give low values; DMSO median 0, no signal -100 | GFP signal change (wild-type ribosome), % (no concentration beside the values) | 1.6% of 350,000 active;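 active = significant combined selectivity score with lowered wild-type GFP, culture density cut under 30%, mutant RFP and density less affected; inactive = any of these conditions unmet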; also: one replicate is shown; some compounds called inactive have numbers as strong as hits
FGF22 binding = FGF22 (human) thermal shift binding | Q9HCT0 | recombinant FGF22 thermal shift, SYPRO orange fluorescence; percent of sucrose octasulfate shift, DMSO zero | calls only at 9.99 µM | 1.5% of 340,000 active | AID 651658;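 active = melting point raised past a set limit in the mean and every replicate; inconclusive = no clear call; three in four hits are not shown here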
Target sequence (Q9HCT0 whole entry, looked up): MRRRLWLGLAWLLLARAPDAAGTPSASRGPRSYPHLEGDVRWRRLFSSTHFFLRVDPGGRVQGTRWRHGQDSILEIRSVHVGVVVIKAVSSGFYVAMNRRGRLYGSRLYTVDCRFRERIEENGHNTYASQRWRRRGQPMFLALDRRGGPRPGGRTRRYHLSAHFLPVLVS
Calb FLC = affects C. albicans growth with fluconazole | C. albicans CaCi-2 (fluconazole-resistant clinical isolate) + fluconazole, Alamar Blue growth, 48 h | growth inhibition, % (no concentration beside the values) | 0.57% of 300,000 active | AID 1979;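 active = most replicates above 75%; inconclusive = exactly half above 75%; inactive = most below 75%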;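 also: all wells also contain fluconazole at 8 µg/ml as a sub-toxic cotreatment; 0% = median of DMSO wells and 100% = median of geldanamycin control wells; wells of about 8 µL received 7.5 nL stock; the first replicate is given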
Beta cell apopt = beta cell apoptosis inhibition | INS-1E cytokine-induced death, ATP luminescence, 48 h; percent of positive-control rescue, neutral wells zero | protection from apoptosis, % (test concentration not listed) | 0.8% of 300,000 active | AID 435005;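 active = all replicates at 75% or more, or half of them and the mean; inconclusive = half reach 75% but not the mean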;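 also: 0% = cytokine-treated negative control wells and 100% = positive control rescue; higher means more ATP so stronger rescue from cytokine killing; wells of about 40 µL received 100 nL stock; the first replicate is given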
ALR inh = blocks human ALR sulfhydryl oxidase activity; 3.8% of 290,000 active; P55789; AID 485317; purified ALR, DTT oxidation, H2O2 HRP-luminol luminescence; inhibition, % (test concentration not listed);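 active = mean and each replicate at 75% or more; inconclusive = only one of the two met; inactive = neither met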;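 also: stock transfer was 7.5 nL into about 7.5 µL; 0% = neutral wells and 100% = wells with inactivated enzyme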
Target sequence (P55789 whole entry, looked up): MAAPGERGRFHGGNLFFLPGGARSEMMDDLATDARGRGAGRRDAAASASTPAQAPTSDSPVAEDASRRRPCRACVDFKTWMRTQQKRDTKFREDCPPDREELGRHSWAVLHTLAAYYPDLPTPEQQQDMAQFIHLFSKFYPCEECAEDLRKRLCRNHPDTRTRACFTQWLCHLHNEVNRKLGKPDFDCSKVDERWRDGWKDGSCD
MLL AF4-AF9 inh = MLL-AF4/AF9 protein interaction inhibition; AlphaScreen, biotin-AF4 peptide binding to FLAG-AF9; inhibition, % at 10 µM; 0.47% of 350,000 active; AID 651704;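 active = every replicate reaching a set inhibition limit, whatever the replicate mean, cut at about 25% in these data; inconclusive = mean inhibition reaches that limit but some replicates miss it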;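 also: 0% = plate neutral control median and 100% = total signal loss; the record names both 10 and 1 µM as test concentration; the first replicate is given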
Target sequence (P42568 whole entry, looked up): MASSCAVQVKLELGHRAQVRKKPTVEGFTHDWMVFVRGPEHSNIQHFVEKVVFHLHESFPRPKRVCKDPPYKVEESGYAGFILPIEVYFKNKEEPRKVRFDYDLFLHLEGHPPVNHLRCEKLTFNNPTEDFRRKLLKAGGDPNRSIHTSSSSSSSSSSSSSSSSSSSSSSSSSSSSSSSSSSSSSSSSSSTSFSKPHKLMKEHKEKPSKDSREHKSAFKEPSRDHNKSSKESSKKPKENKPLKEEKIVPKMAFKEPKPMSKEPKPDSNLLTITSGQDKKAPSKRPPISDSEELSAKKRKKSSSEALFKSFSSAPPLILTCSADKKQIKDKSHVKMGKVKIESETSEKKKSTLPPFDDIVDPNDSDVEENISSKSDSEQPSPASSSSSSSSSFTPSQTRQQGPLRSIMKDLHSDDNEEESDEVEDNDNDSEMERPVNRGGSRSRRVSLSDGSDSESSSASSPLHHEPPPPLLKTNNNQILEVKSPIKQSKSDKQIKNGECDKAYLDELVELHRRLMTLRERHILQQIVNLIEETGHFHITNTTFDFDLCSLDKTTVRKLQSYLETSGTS
T cruzi inh = blocks replication of Trypanosoma cruzi | T. cruzi beta-gal in NIH3T3, luminescence, 90 h | inhibition, % (concentration not given with the values) | 1.4% of 300,000 active;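 active = mean inhibition across valid replicates above about 55%, limit read from the data; inconclusive = mean below that limit but half or more replicates reach it; inactive = mean below it, under half of replicates reach it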;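 also: signal also drops with host cell toxicity which is not excluded here; 0% = plate median of DMSO wells and 100% = zero luminescence signal; higher percent means less beta-gal luminescence so fewer parasites; stock transfer was 50 nL into about 50 µL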
rRNA inh HTS OD600 = recorded beside rRNA inh HTS, whose call it bears; OD600 change, %; measured here: OD600 growth;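 optical density of the mix in the first replicate; 0 = DMSO median and -100 = no signal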
rRNA inh HTS RFP = second read-out of rRNA inh HTS, no call of its own (marks repeat the call); RFP signal change, %; measured here: RFP humanized mutant strains;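 first replicate; 0 = DMSO median and -100 = no signal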
An asterisk follows results filed as active; i = inactive; ? = inconclusive; nt = not tested or not shown. An excerpt (hit frequency here may not be typical).

SMILES | RanGTP-Imp inh | rRNA inh HTS | rRNA inh HTS OD600 | rRNA inh HTS RFP | FGF22 binding | Calb FLC | Beta cell apopt | ALR inh | MLL AF4-AF9 inh | T cruzi inh
CN1C[C@H](CO)C[C@@H]2c3cccc4[nH]cc(c34)C[C@H]21 | -1.8 | 12 | 23 | 0.1 | i | -3 | 0 | 5 | 3.0 | -5
CC1(C)CSC(Nc2ccc(F)c(Cl)c2)=N1 | 0.5 | nt | nt | nt | nt | 4 | 1 | -11 | nt | -18
O=C(NC1(C(F)(F)F)Oc2ccc(Cl)cc2O1)N1CCC2(CC1)OCCO2 (configuration not stated) | ? | nt | nt | nt | nt | -1 | 6 | 99* | nt | -12
CCc1ccccc1NC(=O)CN1CCN(C(=O)COc2ccccc2C#N)CC1 | nt | 2 | 1 | 0.5 | i | nt | 0 | -2 | -1.5 | nt
O=C1NC(=S)NC(=O)C12C(c1ccccc1)NC(=S)NC2c1ccccc1 (configuration not stated) | 2.2 | 28 | 13 | 5.6 | i | -1 | -10 | 34 | -0.6 | -8
C[N+]1(CCC(C(N)=O)(c2ccccc2)c2ccccc2)CCCCC1 | -1.9 | nt | nt | nt | nt | -4 | 2 | -3 | nt | -10
COC(=O)C1=C(c2ccc(F)cc2OCc2ccccc2)C[C@@H]2CC[C@H]1N2C(=O)NCc1cccc(C(F)(F)F)c1 | nt | 2 | -5 | -1.8 | i | nt | -2 | 2 | -4.1 | nt
CC1CCC(NCC(O)c2ccccc2)CC1 (configuration not stated) | 0.5 | nt | nt | nt | nt | 4 | -2 | 5 | nt | -4
CCOP(=O)(OCC)Oc1cc(C)c(N(C)C)c(C)c1 | -1.6 | -1 | -1 | -0.1 | i | -4 | -2 | 4 | 0.7 | -3
CC12CN3CCN(CC(C3)/C1=N/NC(N)=O)C2 | 1.7 | 13 | 3 | 2.0 | i | -3 | 0 | -8 | -0.7 | -7
O=c1c2ccccc2[se]n1-c1ccccc1 | -3.5 | nt | nt | nt | i | nt | nt | nt | -4.3 | -26
C=CCn1c(O)c(C(C)=Nc2ccc(N(CC)CC)cc2)c(=O)[nH]c1=O | -2.2 | nt | nt | nt | nt | 7 | 1 | 7 | nt | 6
CN(C)/C=C(\C=[N+](C)C)c1[nH]ncc1[N+](=O)[O-] | 9.3 | 10 | 12 | 1.0 | nt | 7 | nt | -3 | -1.0 | -2
O=[N+]([O-])c1cc(S(=O)(=O)c2ccc(O)c([N+](=O)[O-])c2)ccc1O | ? | nt | nt | nt | nt | 4 | -4 | -4 | nt | 3
CCOC(=O)C1=C(N)OC(C)=C(C(=O)OCCOC)C12C(=O)Nc1ccccc12 (configuration not stated) | -4.4 | nt | nt | nt | nt | -3 | -5 | nt | nt | -6
CCOC(=O)c1cncn1C(C)c1ccccc1 (configuration not stated) | 0.3 | nt | nt | nt | i | nt | -5 | nt | -2.5 | 5
c1ccc2c(CCNC3=NCCC3)c[nH]c2c1 | 2.2 | nt | nt | nt | nt | -9 | 5 | 2 | nt | -10
COc1cccc(CNCCc2c[nH]c3ccccc23)c1 | -4.4 | 7 | 12 | -1.4 | i | -2 | -2 | nt | 6.3 | -7
CC(C)N1CC=C(c2c[nH]c3ccccc23)CC1 | 4.2 | nt | nt | nt | nt | 7 | -7 | -18 | nt | 14
O=C(c1ccc(C(F)(F)F)cc1)C1CCCN(Cc2ccc(CO)o2)C1 (configuration not stated) | 2.0 | 1 | -4 | -1.8 | i | -20 | -3 | nt | 7.0 | -15
O=C(Cn1cc(C(=O)c2ccccc2F)c2ccccc21)NCc1ccco1 | 4.7 | nt | nt | nt | nt | 48 | 4 | -1 | nt | 18
Cc1cc(/C=C2\C(=O)NC(=O)N(c3ccccc3F)C2=O)c(C)n1-c1cc(C(=O)O)cc(C(=O)O)c1 | 12 | 15 | 9 | 5.9 | i | 1 | -1 | 9 | -3.4 | -4
COc1ccc(CC(=O)Nc2ccc3c(C(F)(F)F)cc(=O)oc3c2)cc1OC | 2.4 | nt | nt | nt | nt | 17 | -1 | 2 | nt | -14
COC(=O)C1=C(c2ccc(OC)c(OC)c2)C[C@@H]2CC[C@H]1N2C(=O)NCCNC(C)=O | nt | 6 | 13 | 0.5 | i | nt | -10 | -1 | -0.6 | nt
COC(=O)C(O)(c1ccc(NC(=S)NC(=O)c2ccc(Cl)cc2Cl)c(C)c1)C(F)(F)F (configuration not stated) | 1.3 | -19 | -14 | -0.3 | i | 58 | nt | -4 | 2.9 | 1
CN(C)C(=O)OCc1n(C)cc[n+]1C | 7.8 | nt | nt | nt | nt | 2 | -8 | -2 | nt | -12
O=C(Cn1ncc2c3ccccc3n(Cc3cccc(Cl)c3)c2c1=O)N1CCC2(CC1)OCCO2 | -3.9 | -4 | -22 | 15 | nt | -3 | -9 | -1 | nt | 29
NC(=O)Cn1cc(C(=O)c2ccccc2)c2ccccc21 | 0.6 | 13 | 7 | -1.2 | i | -7 | -3 | -15 | 1.2 | -2
Oc1ccc(C(=C(Cl)Cl)c2ccc(O)cc2)cc1 | 1.1 | nt | nt | nt | nt | -8 | -8 | 86* | nt | -13
CC1C(c2cccs2)=[N+]([O-])C(C)(C(=O)c2ccc(F)cc2)N1O (configuration not stated) | -1.2 | 4 | -1 | -0.9 | i | -4 | 4 | 2 | 1.1 | 4
Cc1nc2c(c(=O)[nH]1)C(c1ccc([N+](=O)[O-])cc1)c1c(c3ccccc3oc1=O)O2 (configuration not stated) | 6.1 | nt | nt | nt | nt | 52 | 5 | -11 | nt | 3
CC(C)NS(=O)(=O)c1ccc(OCC(=O)N2CCN(Cc3ccccc3)CC2)c(Cl)c1 | 6.2 | nt | nt | nt | nt | 5 | -4 | -35 | nt | 6
CCOP(=O)(OCC)c1cc(CC)ccc1O | 0.8 | 12 | 13 | 3.2 | i | 2 | -8 | -4 | -4.6 | -14
C=CCn1c(O)c(C(C)=O)c(=O)[nH]c1=O (tested in a mixture with another compound) | -1.4 | 22 | 6 | 0.6 | i | -36 | 2 | 2 | nt | -15
CC1=NN(Cc2c[nH]c3ccccc23)C(C)(C)C1 | 6.7 | 9 | 6 | 0.9 | i | 3 | -19 | -3 | 0.0 | -21
COc1cccc(-n2c(/C=C/c3ccc(O)c(O)c3)nc3ccccc3c2=O)c1 | -1.1 | -44 | -62 | -4.9 | i | -43 | -1 | 91* | 11 | -13
O=C(COc1ccc2ccccc2c1)N1CCN(Cc2ccncc2)CC1 | 0.5 | nt | nt | nt | nt | 30 | 0 | -26 | nt | -1
CN(C)C(=O)Oc1ccc([N+](=O)[O-])cc1 | -0.4 | -1 | 0 | -1.3 | i | -5 | -3 | 26 | 1.3 | -2
O=C(c1ccc2c(c1)N(Cc1ccccc1)CCS2)N1CCC2(CC1)OCCO2 | 2.7 | -25 | -50 | -15 | i | 4 | -4 | 85* | 4.4 | 12
NP(=O)(Oc1ccc(Cl)cc1)Oc1ccc(Cl)cc1 | -3.2 | -11 | -15 | -4.3 | i | -2 | nt | -24 | 2.8 | -9
CSc1ccc(C(=O)C(C)(C)N2CCOCC2)cc1 | -0.4 | nt | nt | nt | nt | 32 | -8 | 2 | nt | -10
O=C(C1c2ccccc2C(=O)N2CCc3ccccc3C12)N1CCC2(CC1)OCCO2 (configuration not stated) | 0.9 | nt | nt | nt | nt | -4 | -3 | 2 | nt | -5
CCOC(=O)C1=C(N)OC2=C(C(=O)CCC2)[C@]12C(=O)N(CC(N)=O)c1ccccc12 | -0.2 | 15 | 6 | 2.5 | i | -4 | -3 | -13 | -2.7 | -6
C=CCn1c(O)c(C(CC)=NCCc2ccccc2)c(=O)[nH]c1=O | 0.2 | nt | nt | nt | nt | -9 | 5 | 2 | nt | 16
COc1ccccc1-n1c(-c2ccccc2)nc2ccccc2c1=O | 6.1 | -14 | -8 | -1.0 | i | 13 | nt | nt | -0.6 | 7

Overlap with the part before: 2 compounds; new compounds follow.
SMILES | RanGTP-Imp inh | rRNA inh HTS | rRNA inh HTS OD600 | rRNA inh HTS RFP | FGF22 binding | Calb FLC | Beta cell apopt | ALR inh | MLL AF4-AF9 inh | T cruzi inh
C=CCn1c(O)c(C(CC)=NCCc2ccccc2)c(=O)[nH]c1=O | 0.2 | nt | nt | nt | nt | -9 | 5 | 2 | nt | 16
COc1ccccc1-n1c(-c2ccccc2)nc2ccccc2c1=O | 6.1 | -14 | -8 | -1.0 | i | 13 | nt | nt | -0.6 | 7
Cc1cccc(N2C(=O)NC(=O)/C(=C\c3cc(C)n(-c4sc5c(c4C#N)CCCC5)c3C)C2=O)c1C | -2.8 | nt | nt | nt | nt | 10 | 41 | 8 | nt | 1
O=C(Nc1ccccc1)OC1CN=C(N[N+](=O)[O-])NC1 (configuration not stated) | 0.6 | -2 | -5 | 1.9 | i | -2 | 4 | -8 | 1.5 | -15
CC1=CC(=C2C(=O)NC(=S)NC2=O)C=C(C(F)(F)F)N1Cc1ccccc1 | 6.0 | 8 | 2 | 6.6 | i | 10 | 26 | nt | 0.8 | 3
CC(Cc1cccs1)NCc1ccccc1 (configuration not stated) | 0.1 | 10 | 0 | -1.5 | i | -14 | -1 | -1 | -0.1 | -1
CCN1CCN(c2nc3ccccc3s2)CC1 | ? | 7 | 8 | -8.2 | i | -7 | -5 | 1 | 5.6 | -3
Cc1nc2ccccc2n1C1CCN(Cc2nnnn2CCc2ccccc2)CC1 | -0.2 | nt | nt | nt | nt | 8 | 7 | -6 | nt | 1
O=c1c2ccccc2nc(CN2CCOCC2)n1-c1ccccc1F | -3.0 | nt | nt | nt | nt | -7 | -2 | 1 | nt | -3
CCC(C)N1CCN(C(=O)COc2ccc3ccccc3c2)CC1 (configuration not stated) | 8.1 | 2 | -2 | 4.4 | nt | -4 | -8 | nt | 0.5 | 15
CCCCCCn1c(O)c(C=NC2CCCCC2N)c(=O)[nH]c1=O (configuration not stated) | ? | nt | nt | nt | nt | 14 | -5 | -8 | nt | -7
CCNC(=O)NC(=O)C(C)OC(=O)c1c(C)nn(Cc2ccccc2Cl)c1Cl (configuration not stated) | 0.6 | 3 | 12 | -3.9 | i | -10 | 3 | 1 | -0.8 | -1
O=c1c2ccccc2nc(-c2ccccc2)n1-c1cccnc1 | -5.5 | nt | nt | nt | nt | 14 | -1 | nt | nt | 3
COc1ccc(CNCCc2ccccc2F)c(OC)c1C | 0.7 | -2 | -4 | -2.6 | i | 4 | nt | 0 | -4.3 | 16
CCCOc1ccccc1NP(=O)(Oc1ccccc1)Oc1ccccc1 | -3.0 | -18 | -30 | -0.8 | i | 1 | -1 | -23 | 1.1 | 17
COC(=O)C(C)NC(=S)N1CC2C[C@@H](C1)Cn1c2cccc1=O (some centres not stated) | -1.7 | 17 | 24 | -0.2 | i | 1 | 0 | -4 | -0.4 | -1
O=C(CN1CCCCC1)c1cccc(Br)c1 | 12 | -4 | 2 | -1.1 | i | -10 | -8 | 1 | 2.1 | -2
CCc1ccccc1N1C(=O)NC(=O)/C(=C\c2cc(C)n(C)c2C)C1=O | 2.7 | 10 | 8 | 8.0 | i | 8 | -7 | 13 | -4.4 | 4
